Six1-Eya2 blk = Six1/Eya2 interaction inhibition | activity change, % (test concentration not listed) | AlphaScreen GST-Six1/His-Eya2 binding, biochemical; stronger effect = lower value; control for the full effect not named in the record | Q15475+O00167 | 360,000 tested, 0.56% active; in the data active = activity change below about -65%; inconclusive = about -30% to -65%; inactive = above about -30%; also: % is scaled to controls: 0 for no effect and ±100 for the full control effect; compound concentration not given in the record
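Homogeneous AlphaScreen proximity assay pairing GST-Six1 with His-tagged Eya2 (added as 5X mix: 250 nM and 500 nM) in 50 mM Tris pH 8.0, 300 mM NaCl, 1 mM TCEP. Glutathione donor and nickel acceptor beads; 1 h, 37 °C, dark.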
D2 PAM = potentiates the human D2 dopamine receptor allosterically; P14416; DiscoveRx D2 beta-arrestin cells, luminescence, 90 min; 100% = 57 uM dopamine signal; AID 624464; potentiation, % (no concentration beside the values); 360,000 tested, 0.23% active; active = potentiation of 50% or more; inconclusive = 30% to 50%; inactive = 30% or less;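 also: compound concentration not given in the record; tested on top of an EC20 dose of dopamine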
Target sequence (P14416 whole entry, looked up): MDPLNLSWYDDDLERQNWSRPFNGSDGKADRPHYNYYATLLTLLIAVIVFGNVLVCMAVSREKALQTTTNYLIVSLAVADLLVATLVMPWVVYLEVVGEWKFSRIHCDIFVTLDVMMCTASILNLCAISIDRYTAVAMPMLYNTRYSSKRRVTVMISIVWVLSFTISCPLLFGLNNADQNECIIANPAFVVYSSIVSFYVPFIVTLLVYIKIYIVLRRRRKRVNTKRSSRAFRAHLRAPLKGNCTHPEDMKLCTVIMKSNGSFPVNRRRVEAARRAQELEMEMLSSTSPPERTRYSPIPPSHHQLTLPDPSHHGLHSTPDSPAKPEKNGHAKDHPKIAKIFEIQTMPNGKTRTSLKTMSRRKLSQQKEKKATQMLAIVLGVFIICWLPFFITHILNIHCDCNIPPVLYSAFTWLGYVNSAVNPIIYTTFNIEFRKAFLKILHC
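PathHunter D2 cells, attached overnight at 37 deg C, received compound in DMSO plus dopamine at EC20 (50 nM final) for 90 min at 37 deg C. Beta-arrestin recruitment was read as luminescence after 1 h with detection reagent at ambient temperature.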
CtBP-E1A blk = blocks the CtBP interaction with E1A. AlphaScreen GST-E1A/His-CtBP binding, 1536-well; stronger effect = lower value; control for the full effect not named in the record. AID 651724. activity change, % (test concentration not listed). 340,000 tested, 0.49% active; in the data active means activity change below about -65%; inconclusive means about -30% to -65%; inactive means above about -30%; also: % is scaled to controls: 0 for no effect and ±100 for the full control effect; compound concentration not given in the record
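Steps: dispense buffer (Tris pH 8.0, NaCl 300 mM, TCEP 1 mM, BSA, Tween 20); add 5X protein mix (GST-E1A, His-CtBP, 125 nM each); pin 23 nL compound; 2 h at 37 °C, dark; add 5X beads (50 ug/mL); 1 h; read.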
gsp agonist = activates gsp, the McCune-Albright syndrome mutation. gsp mutant cells, cAMP HTRF, 30 min; control for the full effect not named in the record. Potency, µM (series often up to 76.9 µM), inactives show at the top dose activation (cAMP increase), usual class: activators. 340,000 tested, 0.13% active; active = well fitted activation curve with a large enough effect; inconclusive = small, poorly fitted or top-dose-only effect, or another doubt; inactive = no such curve, though single readings can be large or run the other way; cell line not stated here;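 also: phosphodiesterase inhibitor Ro 20-1724 added with compounds to block cAMP breakdown; potency is read from the fitted curve at half-maximal effect; nearly all actives have a fitted effect of over 60% in size; about a fifth of the inactives were tested at one dose only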
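Cells stably selected in G418 were plated at 2000/well, grown 16-24 hr, then given compounds in DMSO with the PDE inhibitor […] (300 uM solution added) for 30 min at 37C; cAMP was read by HTRF.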
D2 ag = agonists of human D2 dopamine receptor (beta-arrestin); 360,000 tested, 0.084% active; P14416; DiscoveRx PathHunter D2 beta-arrestin, luminescence, 90 min; 100% = 57 uM dopamine signal; activation, % (no concentration beside the values); in the data active = activation above about 40%; inconclusive = about 15% to 40%; inactive = below about 15%; also: compound concentration not given in the record; the text of the record calls up to 30% inactive
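DiscoveRx PathHunter D2 beta-arrestin cells (2,100/well) attached overnight, then compound-stimulated 90 min at 37 C in HBSS/10 mM HEPES/0.1% Tween-20 buffer; beta-galactosidase complementation read by luminescence after 1 h at ambient temperature. Dopamine 57 uM final (EC100) as control.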
gsp antagonist = gsp mutant antagonism; gsp-mutant cells, cAMP HTRF, 30 min; control for the full effect not named in the record; Potency, µM (series often up to 76.9 µM), for inactives: at the top dose activity change, negative = inhibition, usual class: inhibitors; 340,000 tested, 0.4% active; AID 624288; active = falling curve of any shape with a large fitted effect; inconclusive = falling curve, mostly with a smaller effect; inactive = flat or rising curve; cell line not stated here;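 also: intracellular cAMP measured with PDE inhibitor Ro 20-1724 present during compound exposure; potency is read from the fitted curve at half-maximal effect; % is scaled to controls: 0 for no effect and ±100 for the full control effect; nearly all actives have a fitted effect of over 65% in size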
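HTRF cAMP measurement after 30 min RT detection following 30 min, 37C compound treatment alongside […] (added as 300 uM solution) in G418-selected cells seeded at 2000/well and grown 16–24 h.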
The depositor's hits bear a star; ? = inconclusive; . = not tested or not shown; [ ] = remark or other dose.

entry	Structure	D2 ag	CtBP-E1A blk	Six1-Eya2 blk
1	O=C(/C=C/c1ccc(S(=O)(=O)N2CCOCC2)cc1)NCc1ccccc1F	-2.6	-22	-1
2	CCc1nn(CC(=O)N2CCN(CC)CC2)c(=O)c2cc3sccc3n12	-6.1	-1	-1
3	Cc1ccc(S(=O)(=O)Nc2cccc(C(=O)N3CCCC3)c2)cc1F	-4.2	0	0
4	O=C(COC(=O)c1ccco1)Nc1cccc(S(=O)(=O)N2CCCCC2)c1	-3.6	.	-2
5	O=C(NCc1cccnc1)C1CC(c2ccccc2Cl)=NO1 (configuration not stated)	-3.7	6	6
6	Cc1ccc(NC(=O)Cn2c(CCC(=O)O)ccc2-c2cccs2)cc1Cl	4.2	-2	-1
7	CN(CC(=O)Nc1ccc(C(N)=O)cc1)CC(=O)Nc1ccccc1Br	0.2	3	-4
8	O=C(O)COCc1nc2ccccc2s1	-5.4	2	-14
9	COc1ccc(CCNS(=O)(=O)CC23CCC(CC2=O)C3(C)C)cc1OC (configuration not stated)	3.6	.	3
10	O=C1NC2(c3ccccc3)NC(=O)NC2(c2ccccc2)N1 (configuration not stated)	-2.2	1	1
11	Oc1ccccc1Oc1c(F)c(F)nc(N2CCCC2)c1F	2.2	1	0
12	COc1ccccc1C(=O)NCC(=O)OCC(=O)NNC(=O)c1ccc(Br)cc1	-2.2	-1	-7

entry	gsp antagonist	gsp agonist	D2 PAM
1	-8%	-23%	-5
2	12%	-1%	-7
3	-5%	-44%	-13
4	-7%	-47%[inhibitor]	-15
5	8%	-10%[15.4 µM]	-6
6	-7%	?	0
7	13%	?	0
8	22%	-13%	4
9	0%	-11%	9
10	5%	11%[15.4 µM]	-23
11	-2%	22%	-1
12	2%	-1%[15.4 µM]	-17

A different layout for part of the listing above.
7: CN(CC(=O)Nc1ccc(C(N)=O)cc1)CC(=O)Nc1ccccc1Br
1: O=C(/C=C/c1ccc(S(=O)(=O)N2CCOCC2)cc1)NCc1ccccc1F

| assay / entry | 7 | 1 |
| --- | --- | --- |
| D2 ag | 0.2 | -2.6 |
| CtBP-E1A blk | 3 | -22 |
| Six1-Eya2 blk | -4 | -1 |
| gsp antagonist | 13% | -8% |
| gsp agonist | ? | -23% |
| D2 PAM | 0 | -5 |

(further entries)
entry	Structure	D2 ag	CtBP-E1A blk	Six1-Eya2 blk
13	S=C(c1ccc2c(c1)OCO2)N1CCOCC1	-0.5	7	7
14	COc1ccc(NC2CCCN(Cc3cccc4cnccc34)C2)cc1OC (configuration not stated)	2.1	.	10
15	Cc1ccc(CN(c2ccc(C(=O)N3CCc4ccccc4C3)cc2)S(C)(=O)=O)cc1	2.0	5	-7
16	Cc1ccc(C(=O)CN(CCC(=O)O)S(=O)(=O)c2ccc([N+](=O)[O-])cc2)cc1	3.6	1	-1
17	CCCC(=O)Nc1nc2nc(-c3ccccc3)cc(-c3ccccc3)n2n1	-3.5	-3	-1
18	COc1ccc(C(=O)NCC(=O)OCc2ccc([N+](=O)[O-])cc2)cc1	-3.5	-28	-1
19	COc1ccc(S(=O)(=O)N2CCOCC2)cc1NC(=O)COC(=O)CCS(=O)(=O)c1ccc(C)cc1	-3.9	9	2
20	O=C(NCCCN1CCOCC1)c1c(-c2ccccc2)sc2ccccc12	1.7	29	25
21	O=C(CSc1nnnn1-c1ccccc1)N1CCNC1=O	-0.2	.	10
22	COc1ccc(/C(O)=C2/C(=O)C(=O)N(CCN3CCOCC3)C2c2ccccn2)cc1 (configuration not stated)	0.9	-14	-28
23	CC(C)(CC(=O)N1CCN(c2ccc(Cl)cc2)CC1)CC1=NS(=O)(=O)c2ccccc2N1	9.2	-1	4
24	CCOC(=O)NNC(=O)c1ccc(Cl)cc1	-2.7	0	-15

entry	gsp antagonist	gsp agonist	D2 PAM
13	13%	11%	0
14	-13%	-12%	-33
15	-11%	-3%	-5
16	-4%	.	?
17	0%	?	-21
18	1%	-20%[15.4 µM]	0
19	9%	26%	-9
20	9%	.	.
21	3%	8%	-5
22	-7%	22%	?
23	?	-9%	4
24	12%	32%	-3

Additional entries follow:
entry	Structure	D2 ag	CtBP-E1A blk	Six1-Eya2 blk
25	COc1cccc(CNC(=O)Cn2nc(-c3ccc(Cl)cc3)ccc2=O)c1	-2.9	-6	-1
26	COc1ccc(Cl)cc1Nc1nc(C)nc2c1oc1ccccc12	-3.5	5	6
27	Cc1ccc(S(=O)(=O)NCCc2nnc(SCc3cccnc3)n2C)cc1	-0.8	4	-4
28	Cc1ccc(S(=O)(=O)N2CCN(c3ccccc3)CC2)c(C)c1	-2.5	-2	0
29	Cc1ccc2nc(-c3cccc(Br)c3)c(Cc3ccccn3)n2c1	-3.8	-17	-23
30	CCOc1ccccc1Nc1cc(C)nc2ccccc12	-1.1	-19	7
31	CCN(C(=O)CSc1nnc(Cn2nnc3ccccc32)o1)c1nc(-c2ccccc2)cs1	-0.5	-6	-10
32	CC1(C(=O)NS(=O)(=O)c2ccccc2Cl)CCN1C(=O)Cc1cccs1 (configuration not stated)	3.5	8	16
33	CCC(=O)Nc1c(C)n[nH]c1C	0.0	-6	6
34	O=C(O)c1cnc(-c2ccccc2)nc1Sc1ccc(Cl)cc1Cl	-3.3	10	0
35	CCOc1ccc(-n2c(=O)c3c4c(sc3n(CC(=O)NCCCOC)c2=O)CCCCC4)cc1	-1.3	-2	10
36	Cc1oc(-c2ccc3c(c2)OCCO3)cc1C(=O)O	-2.0	-19	-6

entry	gsp antagonist	gsp agonist	D2 PAM
25	-2%	-31%	-13
26	-1%	23%	0
27	9%	-1%[15.4 µM]	-6
28	-10%	2%	-3
29	.	.	-8
30	.	-50%[inhibitor]	-15
31	-16%	-9%	-16
32	.	.	-7
33	8%	-2%	-4
34	-13%	-5%	-6
35	-3%	30%[15.4 µM]	-5
36	-8%	-5%	4

Look-ups from the results shown.
#29 @ D2 ag = -3.8
#27 @ gsp agonist = -1%[15.4 µM]

(next part)
entry	Structure	D2 ag	CtBP-E1A blk	Six1-Eya2 blk
37	O=C(CCC(=O)c1cccs1)NC1CCCCCC1	-2.8	13	7
38	COc1ccc(-c2noc(N3CCC(C(=O)Nc4ccc(OC)c(OC)c4)CC3)n2)cc1	-3.6	0	-4
39	NS(=O)(=O)c1ccc(CCNCc2cc(Br)ccc2OCc2ccccc2)cc1	-0.7	-1	-13
40	CC1CN(C(=O)c2cc(S(=O)(=O)N(C)c3ccc(F)cc3)ccc2Cl)CC(C)O1 (configuration not stated)	-1.8	1	-1
41	N#Cc1ccc(N2Cc3ccccc3/C2=N/C(=O)Nc2ccc(Cl)cc2)cc1	-1.3	6	2
42	COc1cc2cc(NC(C)=O)cc(NCc3ccccc3)c2cc1OC	14	-15	-12
43	Cc1cccc2cc(CN(Cc3ccc(F)cc3)C(=O)N(C)C)c3nnnn3c12	1.3	12	-2
44	Cc1ccc(C(=O)N(CC(=O)NC2CCCC2)c2ccccc2Cl)s1	-4.2	0	0
45	Cc1ccc(S(=O)(=O)N(C)CC(=O)N2CCN(Cc3ccccc3)CC2)cc1	-2.6	0	6
46	Cc1cc(OCC(=O)N[C@@H](Cc2c[nH]c3ccccc23)C(=O)O)c2c(C)c(C)c(=O)oc2c1	-3.9	-12	-13
47	O=C(OCC(=O)c1ccccc1Br)c1ccccn1	-2.7	?	?
48	Cc1cc(F)ccc1NS(=O)(=O)c1cccc2nsnc12	2.8	5	3

entry	gsp antagonist	gsp agonist	D2 PAM
37	7%	?	-4
38	7%	-54%[inhibitor]	-6
39	-1%	7%	-27
40	-7%	-9%	6
41	8%	26%	-1
42	-10%	-22%	-13
43	-2%	-21%	-5
44	7%	-5%[15.4 µM]	-4
45	7%	?	-43
46	-6%	.	-25
47	9%	-14%	-8
48	-16%	-4%[15.4 µM]	-4

(further entries)
entry	Structure	D2 ag	CtBP-E1A blk	Six1-Eya2 blk
49	O=C(Nc1ccccc1-c1ccccc1)c1ccc(=O)[nH]n1	-2.4	0	2
50	CN(C)CCN(C)Cc1ccccc1Sc1cccc2ccccc12	-3.6	-3	-12
51	Cc1ccccc1CN1C2=NCCCN2c2ccccc21	-2.9	-1	4
52	Cc1cccc(N2CCN(C(=O)CCCn3c(=O)[nH]c4ccsc4c3=O)CC2C)c1 (configuration not stated)	2.2	-11	-7
53	Cc1cc(Br)ccc1NC(=O)CNC(=O)CSc1nccn1C	-1.9	3	-4
54	O=C(Oc1ccc(/C=N/NC(=O)c2ccccc2F)cc1)c1ccccc1	7.7	2	3
55	C[C@H]1CN([C@@H](C)CO)C(=O)Cc2cc(NS(C)(=O)=O)ccc2O[C@@H]1CN(C)Cc1ccc(Cl)c(Cl)c1	-0.5	0	-5

entry	gsp antagonist	gsp agonist	D2 PAM
49	2%	2%[15.4 µM]	-7
50	27%	3%	-16
51	-10%	-43%[inhibitor]	-11
52	-22%	-4%	17
53	16%	-2%[15.4 µM]	6
54	7%	25%	-4
55	-14%	.	4

Structures shown so far containing a Cl atom:
entry	Structure	D2 ag	CtBP-E1A blk	Six1-Eya2 blk
5	O=C(NCc1cccnc1)C1CC(c2ccccc2Cl)=NO1 (configuration not stated)	-3.7	6	6
6	Cc1ccc(NC(=O)Cn2c(CCC(=O)O)ccc2-c2cccs2)cc1Cl	4.2	-2	-1
23	CC(C)(CC(=O)N1CCN(c2ccc(Cl)cc2)CC1)CC1=NS(=O)(=O)c2ccccc2N1	9.2	-1	4
24	CCOC(=O)NNC(=O)c1ccc(Cl)cc1	-2.7	0	-15
25	COc1cccc(CNC(=O)Cn2nc(-c3ccc(Cl)cc3)ccc2=O)c1	-2.9	-6	-1
26	COc1ccc(Cl)cc1Nc1nc(C)nc2c1oc1ccccc12	-3.5	5	6
32	CC1(C(=O)NS(=O)(=O)c2ccccc2Cl)CCN1C(=O)Cc1cccs1 (configuration not stated)	3.5	8	16
34	O=C(O)c1cnc(-c2ccccc2)nc1Sc1ccc(Cl)cc1Cl	-3.3	10	0
40	CC1CN(C(=O)c2cc(S(=O)(=O)N(C)c3ccc(F)cc3)ccc2Cl)CC(C)O1 (configuration not stated)	-1.8	1	-1
41	N#Cc1ccc(N2Cc3ccccc3/C2=N/C(=O)Nc2ccc(Cl)cc2)cc1	-1.3	6	2
44	Cc1ccc(C(=O)N(CC(=O)NC2CCCC2)c2ccccc2Cl)s1	-4.2	0	0
55	C[C@H]1CN([C@@H](C)CO)C(=O)Cc2cc(NS(C)(=O)=O)ccc2O[C@@H]1CN(C)Cc1ccc(Cl)c(Cl)c1	-0.5	0	-5

entry	gsp antagonist	gsp agonist	D2 PAM
5	8%	-10%[15.4 µM]	-6
6	-7%	?	0
23	?	-9%	4
24	12%	32%	-3
25	-2%	-31%	-13
26	-1%	23%	0
32	.	.	-7
34	-13%	-5%	-6
40	-7%	-9%	6
41	8%	26%	-1
44	7%	-5%[15.4 µM]	-4
55	-14%	.	4
